MARV entry inh: inhibitors of Marburg virus binding or cell entry. Marburg virus pseudotyped entry inhibition, cell reporter; control for the full effect not named in the record; about a third of the inactives were read at about 46 µM. Potency, µM (highest dose often 37.8 µM), without a hit: top-dose activity change, negative = inhibition, hits mostly inhibitors. 300,000 tested, 1.8% active; active = well fitted inhibition curve with a large enough effect; inconclusive = small, poorly fitted or top-dose-only effect, or effect the other way; inactive = flat fitted curve, though single readings scatter; tested in HEK293 cells; about a fifth of its hits are not listed in these tables; note: % is set by controls: 0 for no effect and ±100 for the full control effect; luciferase read-out
Lassa entry inh: blocks Lassa virus binding to or entry into cells; Lassa virus pseudotype entry inhibition, cell reporter; control for the full effect not named in the record; Potency, µM (doses to about 37.9 µM), without a hit: at the top dose activity change, negative = inhibition, hits mostly inhibitors; 300,000 tested, 1.2% active; AID 540256; active means well fitted inhibition curve with a large enough effect; inconclusive means small, poorly fitted or top-dose-only effect, or effect the other way; inactive means flat fitted curve, though single readings scatter; tested in HEK293 cells; note: % is set by controls: 0 for no effect and ±100 for the full control effect; nearly all actives have a fitted effect of over 50% in size; luciferase read-out
NS1 function inh: blocks influenza NS1 protein function; S. cerevisiae slowed by influenza A NS1, growth recovery by OD600; Potency, µM (highest dose often 46.1 µM), without a hit: at the highest dose activity, positive = more growth; 270,000 tested, 0.4% active; active means well fitted rising curve with a large enough effect; inconclusive means small, poorly fitted or top-dose-only effect; inactive means no such curve, though single readings can be large or run the other way; note: nearly all actives have a fitted effect of over 50% in size
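Recovery from NS1-induced slow growth read by OD600 in budding yeast switched to galactose assay medium (pH 6.0, -URA) at 1:100 dilution. Compound 23 nl per well; the matching strain lacking NS1 serves as control.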
2A StopGo: FMDV 2A StopGo reporter, luciferase signal; Potency, µM (series often up to 57.9 µM), for inactives: at the top dose signal change, negative = less light; human cells with a luciferase reporter of 2A StopGo recoding; control for the full effect not named in the record; 410,000 tested, 1.2% active; AID 1159524; active = well fitted falling curve with a large enough effect; inconclusive = small, poorly fitted or top-dose-only effect; inactive = no such curve, though single readings can be large or run the other way; tested in HEK293T cells; note: % is set by controls: 0 for no effect and ±100 for the full control effect; nearly all actives have a fitted effect of over 45% in size; luciferase light after 4 h
Cruzain inh Det: cruzain (T. cruzi) inhibition with detergent. P25779. 200,000 tested, 0.43% active. Potency, µM, without a hit: max response, negative = inhibition, most hits filed as inhibitors. purified cruzain, Z-FR-AMC fluorescence, 0.01% Triton. AID 1478;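 note: plate controls were neutral wells for no effect and buffer without enzyme for full effect; nearly all actives have a fitted effect of over 40% in size; top concentration of the series not given in the record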
Target sequence (P25779 123-467 limits assumed): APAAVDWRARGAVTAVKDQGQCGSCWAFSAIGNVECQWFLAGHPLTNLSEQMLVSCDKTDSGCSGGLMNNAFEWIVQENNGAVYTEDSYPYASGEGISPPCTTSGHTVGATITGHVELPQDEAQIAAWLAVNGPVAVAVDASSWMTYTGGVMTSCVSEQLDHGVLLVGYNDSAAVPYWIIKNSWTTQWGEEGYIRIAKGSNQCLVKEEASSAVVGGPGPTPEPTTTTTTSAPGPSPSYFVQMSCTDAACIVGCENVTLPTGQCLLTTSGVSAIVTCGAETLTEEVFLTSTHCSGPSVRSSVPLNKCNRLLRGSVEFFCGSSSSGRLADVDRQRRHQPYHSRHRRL
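Steps: dispense cruzain (1.5 nM final) in acetate buffer pH 5.5 with DTT and 0.01% Triton X-100; pin-transfer compounds; incubate 15 min RT; add Z-FR-AMC (2 uM final); read fluorescence every 30 s, using the 60 s intensity change.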
Cruzain inh noDet: blocks cruzain activity in detergent-free assay | 200,000 tested, 2.3% active | Potency, µM, inactives show max response, negative = inhibition, actives largely listed as inhibitors | P25779 | AID 1476 | purified cruzain, Z-FR-AMC fluorescence, no detergent;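 note: plate controls were enzyme without inhibitor for no effect and buffer without enzyme for full effect; nearly all actives have a fitted effect of over 40% in size; top concentration of the series not given in the record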
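Detergent-free condition (0.00005% Triton X-100) in acetate buffer pH 5.5 with DTT. 1.5 nM enzyme and compound were pre-mixed 15 min, then 2 uM Z-FR-AMC substrate added; reaction progress from fluorescence change between first and third reads (60 s).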
RE007 growth inh: less growth of the S. pombe RE007 Vpr strain. S. pombe RE007 Vpr strain, BacTiter-Glo ATP luminescence, 24 h; control for the full effect not named in the record. Potency, µM (top dose mostly 92.2 µM), inactives show at the highest dose activity change, negative = less growth. AID 651644. 360,000 tested, 0.21% active; active = well fitted falling curve with a large enough effect; inconclusive = small, poorly fitted or top-dose-only effect; inactive = no such curve, though single readings can be large or run the other way;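 note: % is set by controls: 0 for no effect and ±100 for the full control effect; nearly all actives have a fitted effect of over 50% in size; the assay follows cell death caused by Vpr and the record does not say whether a fall means rescue or toxicity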
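Fission yeast strain RE007, carrying one chromosomally integrated HIV-1 vpr copy, was seeded at OD 0.01 in PMG+AL medium with 23 nL pinned compound. After 24 h at 30 °C and 99% humidity, viability was read by BacTiter-Glo luminescence.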
SARS PLP yeast: inhibitors of SARS-CoV papain-like protease in yeast | 330,000 tested, 0.19% active | Potency, µM (series often up to 32.9 µM), for inactives: at the top dose activity, positive = growth rescue | S. cerevisiae expressing SARS-CoV PLpro, growth rescue; control for the full effect not named in the record | AID 485353; active means well fitted rising curve with a large enough effect; inconclusive means small, poorly fitted or top-dose-only effect; inactive means no such curve, though single readings can be large or run the other way; note: 0% is about no effect; nearly all actives have a fitted effect of over 55% in size; growth read by luminescence after 48 h
Active calls of the source: *; ? = inconclusive; . = no result given; & = joins results of further samples; [ ] = dose if it differs, or a comment. Unless noted, calls come from the whole dose curve; as a rule, active = well fitted curve in the direction sought with a large enough effect; inconclusive = small, poorly fitted or top-dose-only effect, or another doubt; inactive = no such curve, though single readings can be large; an effect the other way counts as inactive or inconclusive. Potency is the fitted concentration of half-maximal effect. Rows were taken by chance; any-hit rate near 4.8%.

Field names: A = MARV entry inh; B = Lassa entry inh; C = NS1 function inh; D = 2A StopGo; E = Cruzain inh Det; F = Cruzain inh noDet; G = RE007 growth inh; H = SARS PLP yeast
1) CCN(C(=O)CSc1nnc(Nc2ccccc2C)s1)C1CCS(=O)(=O)C1 (stereo not given)
  A: ?	B: 17%	C: -2%	D: -20%	E: -1.9%	F: 3%	G: -12%	H: -4%

2) O=C(N/C(=C\c1ccc([N+](=O)[O-])cc1)C(=O)N1CCOCC1)c1ccccc1
  A: 7%[46.1 µM]	B: .	C: .	D: 27%	E: .	F: .	G: 10%	H: 5%

3) CCCN1C(=O)/C(=C\C=C2/C=CN(CC)c3ccccc32)SC1=S
  A: ?	B: -3%	C: 0%	D: ?	E: -5.8%	F: -8%	G: -8%	H: -9%

4) CCCC1(C(=O)OCC)NC(c2ccc(OC)cc2OC)C2C(=O)N(c3ccccc3)C(=O)C21 (stereo not given)
  A: ?	B: 4%	C: -12%	D: -18%	E: -0.1%	F: ?	G: 1%	H: 14%

5) Cc1ccc(C(=O)Nn2cnnc2)cc1S(=O)(=O)N1CCOCC1
  A: ?	B: 5%	C: 0%	D: -17%	E: .	F: .	G: 44%	H: 2%

6) O=C(Nc1ccc2nc3n(c(=O)c2c1)CCCC3)c1cccc([N+](=O)[O-])c1
  A: 6%	B: 12%	C: 13%	D: 1%	E: -4.1%	F: 14%	G: 2%	H: 28%

7) COc1ccc(N2C(=O)CSC2c2ccccc2)cc1 (stereo not given)
  A: -17%[46.1 µM]	B: -14%[46.1 µM]	C: 2%	D: 1%	E: .	F: .	G: -6%	H: 0%

8) Cc1nc2ccc(C(=O)Nc3ccc4nc[nH]c4c3)cc2[nH]1
  A: ?	B: ?	C: 4%	D: -4%	E: .	F: .	G: 0%	H: 4%

9) Cc1ccc2[nH]c(=O)c(-c3noc(CC(C)C)n3)cc2c1
  A: .	B: .	C: 2%	D: 13%	E: .	F: .	G: 4%	H: -1%

10) CNCc1ccc(OCc2ccccc2)c(OC)c1
  A: ?	B: 11%	C: -1%	D: 18%	E: 1.9%	F: -1%	G: 15%	H: 1%

11) CC(C)NC(=S)n1cc(C(=O)c2cc(Cl)cc(Cl)c2O)cn1
  A: 4%[46.1 µM]	B: 0%[46.1 µM]	C: ?	D: -18%	E: .	F: .	G: -25%	H: -3%

12) CC(C)(C)OC(=O)N1CCC(c2c(C(=O)NCCc3ccccc3)cnn2-c2ccc(F)cc2F)CC1
  A: .	B: ?	C: .	D: -4%	E: -6.3%	F: 16%	G: .	H: .

13) N#Cc1nc(COc2ccccc2)oc1N1CCCC1
  A: ?	B: 5%	C: -108%	D: 16%	E: -0.3%	F: -10%	G: 3%	H: -8%

14) CCC(=O)NC1(C(F)(F)F)C(=O)Nc2c1c(=O)n(C)c(=O)n2C (stereo not given)
  A: 11%	B: 18%	C: 13%	D: 6%	E: 2.9%	F: -5%	G: 19%	H: 1%

15) CCOC(=O)C(Cc1ccccc1)NC(=O)CCC(=O)c1ccc(OC)cc1 (stereo not given)
  A: .	B: .	C: -30%	D: -5%	E: .	F: .	G: 1%	H: -4%

16) COCCn1cc(C(=O)c2ccccc2OCC(=O)Nc2cc(C)on2)cc(C#N)c1=O
  A: 15%&15%	B: 8%	C: -3%	D: -6%	E: -0.3%	F: -2%	G: -20%	H: 8%

17) COc1cc(OC)cc(C(=O)N[C@H](C(=O)OCC(=O)N2CCc3ccccc32)C(C)C)c1
  A: 18%[46.1 µM]	B: 3%[46.1 µM]	C: .	D: -4%	E: .	F: .	G: -2%	H: -1%

18) O=C(/C=C/c1ccc(F)cc1)NC(=S)N1CCN(Cc2ccccc2)CC1
  A: 18%	B: -7%	C: -9%	D: 32%[activator]	E: .	F: .	G: -8%	H: -1%

19) C/C(=N/NC(=O)c1cccs1)c1ccco1
  A: ?	B: ?	C: 10%	D: 28%	E: -2.6%	F: 1%	G: 20%	H: 3%

20) Brc1ccccc1OCCCN1CCOCC1
  A: 19%	B: 20%	C: 10%	D: 42%[activator]	E: 3.3%	F: 6%	G: 6%	H: 8%

21) CC(=O)Oc1ccc(C(=O)Nc2ccc(C3(C#N)CCCC3)cc2)cc1
  A: .	B: .	C: 26%	D: 23%	E: .	F: .	G: -18%	H: -1%

22) CN(Cc1nccs1)C(=O)c1ccc(OC2CCN(CCc3ccccc3)CC2)cc1
  A: ?	B: -9%	C: 11%	D: -29%	E: .	F: .	G: 5%	H: -4%

23) O=C(N/N=C/c1ccc(OCC(=O)N2CCCCC2)cc1)c1ccccc1O
  A: 9%	B: -7%	C: -12%	D: 12%	E: -7.5%	F: 5%	G: 2%	H: ?

24) CC1=C(C(=O)OC(C)C)C(c2ccc(N(C)C)cc2)C2=C(CC(C)(C)CC2=O)N1 (stereo not given)
  A: -1%	B: 3%	C: -25%	D: 18%	E: 3.7%	F: 8%	G: 0%	H: 9%

25) C/C(CC(=O)Nc1cc(C)ccn1)=N\NC(=O)c1ccncc1
  A: 13%[46.1 µM]	B: 25%[46.1 µM]	C: -1%	D: 0%	E: .	F: .	G: 4%	H: 1%

26) Cn1c(CC(=O)Nc2ccccc2Cl)nnc1SCC(=O)Nc1nncs1
  A: 18%[46.1 µM]	B: 9%	C: 13%	D: 0%	E: .	F: .	G: 3%	H: 0%

27) COc1ccc(C(C)(C)C)cc1NC(=O)CSc1ncn[nH]1
  A: -16%[46.1 µM]	B: -8%	C: .	D: -12%	E: .	F: .	G: 13%	H: -24%

28) Cc1cc(C)c(Cn2c(=O)n(CCCC(=O)NCc3ccc4c(c3)OCO4)c(=O)c3sccc32)c(C)c1
  A: 0%[46.1 µM]	B: 5%[46.1 µM]	C: .	D: -16%	E: -1.2%	F: -10%	G: .	H: .

In the list so far, 6 contain a halogen:
Field names: A = MARV entry inh; B = Lassa entry inh; C = NS1 function inh; D = 2A StopGo; E = Cruzain inh Det; F = Cruzain inh noDet; G = RE007 growth inh; H = SARS PLP yeast
11) CC(C)NC(=S)n1cc(C(=O)c2cc(Cl)cc(Cl)c2O)cn1
  A: 4%[46.1 µM]	B: 0%[46.1 µM]	C: ?	D: -18%	E: .	F: .	G: -25%	H: -3%

12) CC(C)(C)OC(=O)N1CCC(c2c(C(=O)NCCc3ccccc3)cnn2-c2ccc(F)cc2F)CC1
  A: .	B: ?	C: .	D: -4%	E: -6.3%	F: 16%	G: .	H: .

14) CCC(=O)NC1(C(F)(F)F)C(=O)Nc2c1c(=O)n(C)c(=O)n2C (stereo not given)
  A: 11%	B: 18%	C: 13%	D: 6%	E: 2.9%	F: -5%	G: 19%	H: 1%

18) O=C(/C=C/c1ccc(F)cc1)NC(=S)N1CCN(Cc2ccccc2)CC1
  A: 18%	B: -7%	C: -9%	D: 32%[activator]	E: .	F: .	G: -8%	H: -1%

20) Brc1ccccc1OCCCN1CCOCC1
  A: 19%	B: 20%	C: 10%	D: 42%[activator]	E: 3.3%	F: 6%	G: 6%	H: 8%

26) Cn1c(CC(=O)Nc2ccccc2Cl)nnc1SCC(=O)Nc1nncs1
  A: 18%[46.1 µM]	B: 9%	C: 13%	D: 0%	E: .	F: .	G: 3%	H: 0%

Sorted by number of heavy atoms (smallest number first): part of the list above.
Field names: A = MARV entry inh; B = Lassa entry inh; C = NS1 function inh; D = 2A StopGo; E = Cruzain inh Det; F = Cruzain inh noDet; G = RE007 growth inh; H = SARS PLP yeast
25) C/C(CC(=O)Nc1cc(C)ccn1)=N\NC(=O)c1ccncc1
  A: 13%[46.1 µM]	B: 25%[46.1 µM]	C: -1%	D: 0%	E: .	F: .	G: 4%	H: 1%

21) CC(=O)Oc1ccc(C(=O)Nc2ccc(C3(C#N)CCCC3)cc2)cc1
  A: .	B: .	C: 26%	D: 23%	E: .	F: .	G: -18%	H: -1%

28) Cc1cc(C)c(Cn2c(=O)n(CCCC(=O)NCc3ccc4c(c3)OCO4)c(=O)c3sccc32)c(C)c1
  A: 0%[46.1 µM]	B: 5%[46.1 µM]	C: .	D: -16%	E: -1.2%	F: -10%	G: .	H: .

Assay outcomes (PubChem BioAssay)
